# CDC25B-CDK2 inh = human CDC25B-CDK2/CyclinA binding inhibition; P30305+P24941; HTRF CDC25B-CDK2/CyclinA binding, anti-His/anti-Flag; stronger effect = higher value; z-score (concentration not given with the values); hit rate 0.72% among 94,000; AID 1259370;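 further: score is relative to mean and SD of negative controls; strong numbers were not always called active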
# TAR Tat displ = HIV-1 TAR-Tat binding disruption. z-score (test concentration not listed). HIV-1 TAR RNA, Tat peptide displacement FRET; stronger effect = higher value. AID 1259389. hit rate 0.6% among 100,000;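 further: score is relative to mean and SD of negative controls; some compounds called inactive have numbers as strong as hits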
# An asterisk follows results filed as active; . = no result given; ! = repeats disagree.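 How the source made its calls: active means z-score from 3 up in half or more of its runs; inactive means the rest.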
Compound,CDC25B-CDK2 inh,TAR Tat displ
Cc1ccc2c(c1)-c1c(c(C(=O)NC3CC3)nn1C)CS2,.,1.4
Cc1ccc(N=C2CSc3nnc(-c4cccnc4)n3N2)cc1,0.11,-5.7
COc1cccc(NC(=O)CSc2nnc3ccc4ccccc4n23)c1,-0.9,.
CC(C)(C)n1c(-c2ccncc2)n[nH]c1=S,0.07,.
CCOC(=O)c1ccc2[nH]c(CSc3nnc(-c4ccc(OC)cc4)n3C)cc(=O)c2c1,.,-0.81
COc1cc(Cl)ccc1Oc1ncnc2sc(C)c(C)c12,.,1.4
CC(NC(=O)c1ccc(N2CCCS2(=O)=O)cc1)c1ccc2c(c1)OCCO2 (configuration not stated),.,1.2
CCn1cc(S(=O)(=O)c2cccc(Cl)c2)c(=O)c2cc(F)c(N3CCCC3)cc21,.,-0.89
COc1ccc(C2C(C#N)=C(N)Oc3c2ccc2ccccc32)cc1OC (configuration not stated),-1.1,-2.3
Cc1ccc(-n2ncc3c(Nc4ccc(Cl)cc4)ncnc32)cc1,-0.66,.
O=C(c1cccc(Cl)c1)N1CCN(c2ccc3nnc(-c4ccccc4)n3n2)CC1,-0.76,-0.42
CCN1CCCC1CNC(=O)c1nnc(Cc2ccc3c(c2)OCO3)o1 (configuration not stated),-0.17,0.13
CC(C)CCn1cnc2c(NCc3ccccc3)ncnc21,0.4,.
COc1ccc(C=NCCNc2nccc(C(F)(F)F)n2)cc1OC,-1.7,.
COC(=O)c1scc(C)c1S(=O)(=O)Nc1ccc(C)cc1,-0.46,.
CCOc1c(N2CCN(c3ccccc3)CC2)c(=O)c1=O,.,0.26
CSc1ccc(C2C(C#N)=C(N)Oc3cc(C)[nH]c(=O)c32)cc1 (configuration not stated),-0.42,.
Cc1nn(-c2nc3ccccc3o2)c2c1C(c1cccc(Cl)c1)CC(=O)N2 (configuration not stated),.,1.4
Cc1noc2ncnc(NCCN3CCC(C)CC3)c12,.,-0.84
CCn1c2ccccc2c2cc(C=Nc3cccc4c(=O)[nH][nH]c(=O)c34)ccc21,-1.9,.
O=C(O)c1nccnc1C(=O)Nc1ccccn1,-1.4,-0.51
O=C(CSc1nccn(-c2ccc(F)cc2)c1=O)Nc1ccccc1,.,0.39
O=C(C1CCN(S(=O)(=O)c2cccnc2)CC1)N1CCOc2ccccc21,.,1.9
CC(C)CCNC(=O)C1(C)Cn2nc(C(=O)N3CCCC3)cc2C(=O)N1C (configuration not stated),.,0.57
Clc1cccc(-n2cc(-c3ccccc3)c3c(NCc4ccccn4)ncnc32)c1,.,0.3
CC1=Nc2cc(C(=O)O)ccc2Sc2ccc(C)cc21,-2.8,.
CN(Cc1ccccc1)C(=O)Cn1nc(Cc2ccncc2)c2ccccc2c1=O,-1.6,1.6
NC(=O)CSc1nnc(SCC(=O)Nc2ccccc2)s1,-0.46,0.6
Cc1nnc(N2CCCC(C(=O)N3CCC(C)CC3)C2)c2nn(-c3ccc(Cl)cc3)c(C)c12 (configuration not stated),.,0.2
Cc1ccc2nc(N(Cc3cccnc3)C(=O)c3ccc4c(c3)OCCO4)sc2c1,.,1.7

# 4 entries picked at random from those above, as already listed:
Compound,CDC25B-CDK2 inh,TAR Tat displ
NC(=O)CSc1nnc(SCC(=O)Nc2ccccc2)s1,-0.46,0.6
O=C(C1CCN(S(=O)(=O)c2cccnc2)CC1)N1CCOc2ccccc21,.,1.9
Clc1cccc(-n2cc(-c3ccccc3)c3c(NCc4ccccn4)ncnc32)c1,.,0.3
Cc1noc2ncnc(NCCN3CCC(C)CC3)c12,.,-0.84

# Next part
Compound,CDC25B-CDK2 inh,TAR Tat displ
COC(=O)C(N)CS (configuration not stated),.,1.1
C#CCn1nnc2ccccc21,-4.7,.
CC(=O)Nc1cccc(OCCOc2cccc(NC(C)=O)c2)c1,0.04,.
COc1ccc(S(=O)(=O)CCCC(=O)Nc2sc3c(c2C(N)=O)CCC3)cc1,.,0.27
O=C(c1ccc(F)cc1)c1cn(Cc2ccccc2F)c2cc3c(cc2c1=O)OCCO3,-1.3,2
CCCn1c2ccccc2c2cnn(CC(=O)N(C)c3ccccc3)c(=O)c21,.,-0.22
CC(C)CCNc1nc(Nc2ccc(Cl)cc2)c2cnn(C)c2n1,.,0.69
CN(C)c1nc(C(=O)OCCO)nc(N(C)C)n1,-0.03,-0.48
CCCCOC(=O)c1ccc(N2CC(O)=C(c3nc4ccc(C)cc4[nH]3)C2=N)cc1,-0.85,0.42
CCOC(=O)c1sc2nc(N3CCOCC3)c3c(c2c1N)CC(C(C)C)OC3 (configuration not stated),-0.13,1.2
C/C(=N\OC(=O)c1cccc(C(F)(F)F)c1)c1csc(-c2ccno2)n1,-1.6,.
COc1ccc2c(c1)sc1nc(=O)n(-c3ccccc3)c(=O)n12,-0.62,.
Cc1ccc(-c2nc(SC(C)C(=O)O)[nH]c(=O)c2C#N)cc1 (configuration not stated),-0.85,-1.9
O=c1c(O)c(-c2ccc(O)c(O)c2)oc2cc(O)cc(O)c12,-1.9,28*!
CN(C)S(=O)(=O)c1ccc2c(c1)N(CC(=O)N1CCc3ccccc31)CCS2,.,-0.06
COc1ccc(C2CC(c3ccc(Br)s3)Nc3ncnn32)cc1OC (configuration not stated),-0.98,.
Clc1ccc(CSc2nnc(-n3cccc3)s2)cc1,-1.3,.
COc1cc(NC(=S)NN)cc(C(F)(F)F)c1,-0.96,.
Cc1ccc(CNc2cc(C)nc3nc(-c4cccc(C)c4)nn23)cc1,.,2.4
Cc1cc(C)c(S(=O)(=O)NCc2cn3ccsc3n2)cc1C,-2,.
CN1CCN(CCCNC(=O)c2nn(C)c3c2CS(=O)(=O)c2ccccc2-3)CC1,0.93,0.78
Cc1ccc(CNS(=O)(=O)c2ccc(CN3C(=O)c4cccnc4C3=O)s2)o1,.,0.27
Cc1ccc(-c2csc3ncnc(NCc4ccc5c(c4)OCO5)c23)cc1,-2,3.1
CCN(CC)CCCNc1oc(-c2ccc(OC)cc2)nc1C#N,-0.34,3
CN(C(=O)CSc1nnc(-c2cc3ccccc3n2C)o1)c1ccccc1,0.76,0.94
CC1CN(C(=O)CCC(=O)N2CCN(c3ccccc3)CC2)c2ccccc2O1 (configuration not stated),-1.9,0.09
O=c1c2ccccc2nnn1C1CCN(S(=O)(=O)c2ccc(F)cc2)CC1,.,2.1
Cc1ccc(CN2CC34C=CC(O3)C(C(=O)OC(C)C)C4C2=O)cc1 (configuration not stated),-1.4,0.35
O=S(=O)(c1ccccc1)N1CCN(Cc2ccccc2)CC1,-0.85,.
Cc1onc(-c2c(F)cccc2Cl)c1C(=O)Nc1c(C)n(C)n(-c2ccccc2)c1=O,-0.1,.
Cc1ccc(-c2n[nH]c(=O)c3c2CCCC3)cc1S(=O)(=O)N1CCCC(C)C1 (configuration not stated),1.3,0.45
CN1C(=O)c2ccccc2Sc2ccc(NC(=O)N3CCN(c4ccc(F)cc4)CC3)cc21,-0.05,2.4
COc1ccc(-n2cc[nH]c(=O)c2=O)cc1Cl,-2,0.57
Cc1ccc(-c2noc(-c3nnn(-c4ccc(C)cc4C)c3N)n2)cc1,.,-1.3
Cc1cn2c(=O)cc(CSc3ccccc3)nc2s1,-1.3,-0.35
Fc1ccc(-n2ncc3c(NCC4CCCO4)ncnc32)cc1 (configuration not stated),.,1.4
Cc1nc(-c2ccc(S(=O)(=O)Nc3ccc(Br)cc3F)cc2)co1,.,0.88
COc1cc(Br)cc2c1Oc1nc(-c3ccc(O)cc3)[nH]c(=O)c1C2,-0.97,2
CCOc1ccccc1NS(=O)(=O)c1ccc(-c2ccc(=O)[nH]n2)s1,.,0.48
COC(=O)c1ccc(NC(=O)N2CCCC2c2ccco2)cc1 (configuration not stated),-2.3,0.62
CCOC(=O)c1nc(N2CCc3cc(OC)c(OC)cc3C2C)c2ccccc2n1 (configuration not stated),.,1.4
CC1CC(C)CN(c2ncnc3onc(-c4ccc(F)cc4)c23)C1 (configuration not stated),.,-0.65
O=C(C1CC(c2ccc(F)cc2)=NO1)N1CCCCC1 (configuration not stated),-0.88,0.69
CCOC(=O)c1cc(NS(=O)(=O)c2ccc3c(c2)CCO3)ccc1N1CCCCC1,-1.8,.
CN1CCN(CCCN2C(=O)c3cc4occc4n3CC2(C)C(=O)NC2CCCCC2)CC1 (configuration not stated),.,2.2

# Some of the entries so far, field by field:
smiles: CCCCOC(=O)c1ccc(N2CC(O)=C(c3nc4ccc(C)cc4[nH]3)C2=N)cc1
- CDC25B-CDK2 inh: -0.85
- TAR Tat displ: 0.42

smiles: CCOC(=O)c1sc2nc(N3CCOCC3)c3c(c2c1N)CC(C(C)C)OC3 (configuration not stated)
- CDC25B-CDK2 inh: -0.13
- TAR Tat displ: 1.2

smiles: C/C(=N\OC(=O)c1cccc(C(F)(F)F)c1)c1csc(-c2ccno2)n1
- CDC25B-CDK2 inh: -1.6
- TAR Tat displ: .

smiles: COc1ccc2c(c1)sc1nc(=O)n(-c3ccccc3)c(=O)n12
- CDC25B-CDK2 inh: -0.62
- TAR Tat displ: .

# More entries:
Compound,CDC25B-CDK2 inh,TAR Tat displ
O=C(NCC1CCCO1)C(=O)c1c[nH]c2ccccc12 (configuration not stated),-0.17,.
C#CCOC(=O)c1cccc(CSC(=N)N)c1,-0.11,.
O=C(CSc1nc(NC(=O)c2ccccc2)c2c3c(sc2n1)CCC3)Nc1nccs1,.,1.2
CC1(C)Cc2c(C#N)c(NCCCO)nc(Cc3ccccc3)c2CO1,-1.3,0.88
O=C(CCc1nnc2ccc(N3CCOCC3)nn12)NCCC1=CCCCC1,.,0.54
COCCNc1oc(-c2ccc(S(=O)(=O)N3CCc4ccccc4C3)cc2)nc1C#N,0.3,-0.51
Cc1nc(-n2[nH]c(C)c(CC(=O)N3CCCC3)c2=O)sc1C,-2.8,-0.56
Cc1cc2cc(CCNC(=O)C(C)(C)C)c(=O)[nH]c2cc1C,-2.6,.
Cn1c(SCc2ccccc2F)nc(=O)c2c1NC(=O)CC2c1cccc(F)c1F (configuration not stated),-1.4,-0.91
CCNC(=O)c1cccn1-c1nnc(N2CCCCC2)s1,.,0.74
Cc1cccc(OCC(O)Cn2c(CO)nc3ccccc32)c1 (configuration not stated),-0.51,0.24
O=C(Nc1ccccc1F)c1csnn1,-1.3,-2.3
CC1(C)CC(=O)c2cnc(NCc3ccco3)nc2C1,0.47,1.6
COc1ccc(-c2cnc3ncnn3c2N)cc1OC,-1.6,0.94
CNc1nc(Nc2ccc(C)cc2)nc(N)c1[N+](=O)[O-],.,0.19
CCOc1cc(CNCCSc2nnnn2C)ccc1OC,-1.4,-1.8
Cc1ccc(NS(=O)(=O)c2ccc(/C=C/c3onc(C)c3[N+](=O)[O-])cc2)cc1Cl,.,0.74
Cc1nc2c3ccccc3[nH]c(=O)n2n1,-0.56,.
O=C(Cn1c(=O)oc2ccccc21)NCCN1CCc2ccccc2C1,.,-0.26
Cc1ccc(CNC(=O)Cn2nc(C)c3nn(-c4ccc(Cl)cc4)c(-n4cccc4)c3c2=O)o1,.,0.98
C#CCn1c(C2CC(=O)N(c3ccccc3Cl)C2)nc2ccccc21 (configuration not stated),-1.1,-1.3
Cc1cc(C)cc(NS(=O)(=O)c2c(C)nc3scc(C)n3c2=O)c1,0.24,1.4
COc1ccc(C(=O)CSc2nccn(-c3ccc(OC)cc3)c2=O)cc1,.,0.38
O=C(CN1C(=O)c2ccccc2S1(=O)=O)NCc1ccncc1,-0.3,1.4
CCOC(=O)c1nnn(-c2ccc(OCC)cc2)c1C(=O)OCC,-2.9,-1.4
COc1ccc(-n2c(=O)[nH]c3c(oc4ccccc43)c2=O)cc1,-2,-1.1
Cc1ccc(-c2c3c(=O)n(C)c(=O)n(C)c3c3n2CCOC3c2cc(Cl)ccc2O)cc1 (configuration not stated),-0.13,-0.06
COc1ccccc1-c1nc(C)c2c(C)c(C(=O)NN)sc2n1,-0.31,.
COc1ccc(OCC(=O)Nc2c(C(=O)N3CCN(c4ncccn4)CC3)oc3ccccc23)cc1,.,2.3
CCOC(=O)CCCSc1nc2sc(C)c(C)c2c(=O)[nH]1,-0.99,.
Cn1c(=O)c2c(nc(N3CCCC3)n2CCSc2nc3ccccc3s2)n(C)c1=O,-1.4,.
O=C(O)c1cc(S(=O)(=O)N2CCOCC2)ccc1Cl,-2.1,1.7
COc1cc(OC)cc(-c2nc3n(n2)C(c2ccc(OC)c(OC)c2)C2=C(CC(C)(C)CC2=O)N3)c1 (configuration not stated),-0.48,1.1
Cc1c(-c2nc(-c3ccccc3F)no2)nnn1-c1ccccc1Br,.,0.38
Cn1c(=O)n(Cc2ccccc2)c(=O)c2cc3c(nc21)CC(C)(C)OC3,0.8,-0.38
Cn1ncc2c(N3CCOCC3)nc(NCCCO)nc21,.,1
NCCSC1CC(=O)N(c2ccc(Cl)cc2)C1=O (configuration not stated),-1.7,0.05
O=C(Cc1noc2ccccc12)N1CCN(c2ccc(Cl)cc2)CC1,-0.46,0.4
Cc1ccc(S(=O)(=O)N(C(=O)c2ccncc2)c2ccc3oc(=O)sc3c2)c(C)c1,-0.11,1.9
CC1CCN(S(=O)(=O)c2cccc3cccnc23)CC1,0.95,-0.12

# Compound activity: PubChem BioAssay, Center for Chemical Genomics, University of Michigan

# Not a hit list; about 0.9% have a hit in one of these screens.
